# Compound activity: PubChem, Johns Hopkins Ion Channel Center
# KCNQ2 block – KCNQ2 channel blockers in CHO-K1 cells – cell-based, FluxOR thallium flux, B-score, primary screen (AID 2156). O88943. B-score at 10 µM. hit rate 1.1% among 310,000. 20 min; hits give low values; only compounds with negative scores are shown here; some inactives read as strong as hits;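 active means fluorescence ratio B-score at most minus 3 library SDs, with starting brightness B-score within 2 library SDs, cut at about -5.5 in these data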
# Target sequence (O88943 whole entry, looked up): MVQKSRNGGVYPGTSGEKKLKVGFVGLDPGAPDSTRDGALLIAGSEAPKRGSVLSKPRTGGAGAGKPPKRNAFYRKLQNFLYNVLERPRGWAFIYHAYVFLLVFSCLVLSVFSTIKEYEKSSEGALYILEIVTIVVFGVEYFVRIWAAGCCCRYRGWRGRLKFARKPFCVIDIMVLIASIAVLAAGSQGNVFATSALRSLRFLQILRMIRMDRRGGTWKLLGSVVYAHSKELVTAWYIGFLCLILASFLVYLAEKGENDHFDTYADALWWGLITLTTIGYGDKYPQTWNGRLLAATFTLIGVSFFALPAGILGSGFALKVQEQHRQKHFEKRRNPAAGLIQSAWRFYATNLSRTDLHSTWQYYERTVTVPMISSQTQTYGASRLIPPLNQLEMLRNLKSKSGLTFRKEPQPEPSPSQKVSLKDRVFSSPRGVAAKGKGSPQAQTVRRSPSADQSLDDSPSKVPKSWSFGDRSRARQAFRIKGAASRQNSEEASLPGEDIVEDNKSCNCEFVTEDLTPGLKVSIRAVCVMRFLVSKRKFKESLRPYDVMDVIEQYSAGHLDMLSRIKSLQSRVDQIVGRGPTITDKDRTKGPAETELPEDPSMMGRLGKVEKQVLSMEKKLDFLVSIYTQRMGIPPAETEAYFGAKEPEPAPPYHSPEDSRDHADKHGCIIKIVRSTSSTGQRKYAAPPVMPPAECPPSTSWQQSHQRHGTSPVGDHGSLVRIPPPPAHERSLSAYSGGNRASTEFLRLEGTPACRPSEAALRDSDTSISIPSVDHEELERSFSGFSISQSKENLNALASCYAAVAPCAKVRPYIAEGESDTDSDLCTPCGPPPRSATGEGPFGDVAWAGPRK
# KCNQ2 block baseline – also measured in KCNQ2 block; calls as there; B-score; measured here: initial fluorescence intensity artifact check;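 brightness before thallium and not channel activity; 0 = typical well and far values either way flag optical interference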
# An asterisk follows results filed as active; i = inactive. A portion of the library (hit frequency here may not be typical).
molecule	KCNQ2 block	KCNQ2 block baseline
CCC(C)(C)NC(=O)CN(C(=O)CCC(=O)Nc1nccs1)c1ccccc1C	i	-0.12
COc1ccc(CCNc2nc(C)nc3c2oc2ccccc23)cc1OC	-5.63*	-1.33*
CCOc1ccc(NC(=S)N2CCCN(Cc3cc(C)ccc3C)C2)cc1	i	0.02
CCc1ccc(NC(=O)[C@H](NC(=O)[C@@H]2Cc3ccccc3CN2)c2ccccc2)cc1	i	-0.67
Cc1cc(C)c2c(c1)/C(=N/NC(=O)c1cc(C)oc1C)CCC2	i	-1.04
COc1ccc(/C=C2\SC(=S)N(CCC(=O)Nc3ccccn3)C2=O)cc1OC	i	-1.89
CSc1cccc(NC(=O)CN(C2CCCCC2)S(C)(=O)=O)c1	i	0.45
CCCCc1cc(=O)oc2cc(OCC(=O)N3CCc4ccccc43)ccc12	i	0.47
CC(NC(=O)c1ccco1)C(c1cccs1)N1CCN(c2ccc(F)cc2)CC1 (stereo not drawn)	i	1.19
C=CCN(CC=C)C(=O)COC(=O)c1n[nH]c2ccccc12	i	0.67
COc1ccc(NC(=O)c2ccco2)c2ccccc12	i	1.13
Cc1cc(C)c(Cn2cnc(-c3ccc([N+](=O)[O-])cc3)c2)c(C)c1	i	2
CCOc1ccc(NCc2nc3ccccc3n2CCOc2ccccc2)cc1	i	-3.29
Cc1nc2ccc(Nc3ccncc3)cc2s1	i	3.25
O=c1[nH]n(-c2ccc(F)cc2)c2ncccc12	i	0.03
COc1ccc(C)cc1S(=O)(=O)Nc1cccc(Cl)c1Cl	i	0.45
Cc1cc(C(=O)NCc2ccc(Cl)cc2)n(-c2ccccc2)n1	i	-0.03
Cc1ccc(C(=O)C2=C(O)C(=O)N(c3ncccn3)C2c2ccc(Cl)cc2)o1 (stereo not drawn)	i	1.16
Cc1nn(Cc2ccccc2)c(C)c1C(=O)OCC(=O)c1cc(C)n(CC(F)(F)F)c1C	i	0.83
Cc1cccc(NC(=O)CCCN2C(=O)C3CC=CCC3C2=O)c1 (stereo not drawn)	i	1.37

# In the list so far, these contain a Cl atom.
molecule	KCNQ2 block	KCNQ2 block baseline
COc1ccc(C)cc1S(=O)(=O)Nc1cccc(Cl)c1Cl	i	0.45
Cc1cc(C(=O)NCc2ccc(Cl)cc2)n(-c2ccccc2)n1	i	-0.03
Cc1ccc(C(=O)C2=C(O)C(=O)N(c3ncccn3)C2c2ccc(Cl)cc2)o1 (stereo not drawn)	i	1.16

# (further entries)
molecule	KCNQ2 block	KCNQ2 block baseline
O=C(CCCN1C(=O)c2cccnc2Oc2ccc(Cl)cc21)N1CCCCC1	i	0.21
Cc1cccc(Nc2cc(C)c3c(O)cccc3n2)c1C	i	-0.79
CCN(CC(=O)Nc1cc(Cl)ccc1C)C(=O)CCOc1ccc(C)cc1	i	-1.07
Cc1ccc(S(=O)(=O)N2CCOCC2)cc1NC(=O)c1cc([N+](=O)[O-])ccc1N1CCOCC1	i	0.36
Cc1cccc[n+]1CC(=O)Nc1cccc([N+](=O)[O-])c1	i	0.59
CC1(OC(=O)C2CCCC2)C(=O)C=C2C=C(c3ccsc3)N(CCN3CCOCC3)C=C2C1=O (stereo not drawn)	i	-3.17
COc1ccccc1C1N=C(c2ccccc2C)NO1 (stereo not drawn)	i	-0.67
O=C(c1ccccc1)c1ccc2nc(Nc3ccccc3)c3nncn3c2c1	i	0.1
Cc1ccc2nc(-c3ccncc3)cc(C(=O)NCCc3ccc(F)cc3)c2c1	i	-0.94
CC(C(=O)Nc1ccc(C#N)cc1)N(C)CC(=O)Nc1cccc(F)c1 (stereo not drawn)	i	3.89
CCN(CC)c1ccc(NC(=O)OC)cc1	i	0.2
CC1CCN(S(=O)(=O)c2ccc3[nH]c(=O)[nH]c3c2)CC1	i	-0.28
COc1ccc(-c2cc(=O)oc3cc(OC(C)C(=O)NCCCn4ccnc4)ccc23)cc1 (stereo not drawn)	i	5.01
Cn1nc(C(C)(C)C)cc1C(=O)NCc1cc(F)cc2c1OCOC2	i	-2.9
C=C(C)C1CC=C(C)/C(=N\NC(=O)CNc2ccccc2OC)C1 (stereo not drawn)	i	1.16
O=S(=O)(Nc1cccc2cccnc12)c1ccc(S(=O)(=O)N2CCCC2)cc1	i	1.27
COc1ccc(Cl)cc1N(CC(=O)Nc1ccc2c(c1)OCO2)S(C)(=O)=O	i	-1.32
CCOC(CNc1ncnc2sc(-c3ccccc3)cc12)OCC	i	-1.48
Cc1cc(C)c(S(=O)(=O)c2c(C)cccc2C)c(Cl)n1	i	0.77
Cc1cc(Sc2ncnc(N)c2[N+](=O)[O-])ncn1	-5.87*	-2.33*
O=C(Nc1c(C(=O)N2CCC(N3CCCCC3)CC2)oc2ccccc12)c1ccc(F)cc1	i	-0.37
COc1ccccc1CC1(C)NC(=O)N(CC(=O)Nc2cc(C)on2)C1=O (stereo not drawn)	i	-1.19
CC(C)(C)c1ccc(OCC(=O)NC2CCS(=O)(=O)C2)cc1 (stereo not drawn)	i	0.93
O=C(CSc1cccc(C(F)(F)F)c1)N1CCN(S(=O)(=O)c2ccccc2)CC1	i	0.63
COc1ccc2c(c1)C=C(C(=O)NCc1ccc(Cl)cc1)CO2	i	0.31
CCCc1cc(=O)[nH]c(SCC(=O)N(CC)C2CCS(=O)(=O)C2)n1 (stereo not drawn)	i	-0.03
COc1ccc(/C=C/C(=O)Nc2ccccc2C(=O)NCC(c2ccc(OC)cc2)N(C)C)cc1 (stereo not drawn)	i	-0.77
COc1cc(CCC(=O)Nc2nnc(C)s2)cc(OC)c1OC	i	-0.33
CCOC(=O)C1CCN(C(c2cccc(F)c2)c2sc3nc(C)nn3c2O)CC1 (stereo not drawn)	i	-0.28
CC(=O)N1CCOc2ccc(S(=O)(=O)N3CCC(C(=O)Nc4ccc(C)c(C)c4)CC3)cc21	i	-0.01
COC(=O)c1cc(NC(=O)C(C)c2ccc(CC(C)C)cc2)ccc1O (stereo not drawn)	i	-2.75
Cc1ccccc1/C=N/N1C(=O)CSC1=S	i	-0.84
Cc1ccccc1C(=O)Nc1nnc(-c2ccco2)s1	i	-0.91
COc1ccc(/C=C/C(=O)CC(O)(c2ccccc2)C(F)(F)F)cc1 (stereo not drawn)	i	0.99
Cc1cc(Cl)c(O)c(-n2nc3ccccc3n2)c1	i	0.54
Cc1ccccc1CC1(CO)CCCN(Cc2ccc3c(c2)OCCO3)C1 (stereo not drawn)	i	1.05
CC(C)n1nc(C(=O)Nc2ccccc2N2CCOCC2)c2ccccc2c1=O	i	-0.26
CCN(CC)CCNc1nc(-c2ccco2)c2c(c1C#N)CC(C)(C)OC2	i	1.33
COc1ccc(C)cc1NC(=O)CCCN1C(=O)C2CC=CCC2C1=O (stereo not drawn)	i	1.85
Cc1ccc(C)c(C(=O)CC2(O)C(=O)N(C)c3ccccc32)c1 (stereo not drawn)	i	0.24
CCOc1nc(N(C)C)nc(-n2nnc(C(C)=O)c2C)n1	i	-1.63
Brc1ccc(Oc2ncc(CN3CCN(c4ccccc4)CC3)s2)cc1	i	-0.27
Nc1cc(=O)n(Cc2ccccc2)c(=O)n1-c1ccc(F)cc1	i	1.08
COc1ccc(Cl)cc1NC(=O)CN1CCc2ccccc2C1	i	1.43
COc1cccc(Cl)c1NC(=O)N1CCN(c2cc(C)nc3ccccc23)CC1	i	0.58
Cc1ccc(N(C(=O)c2csnn2)C(C(=O)NC2CCCCC2)c2cccnc2)cc1C (stereo not drawn)	i	0.68
CCCC1=Nc2cc(C(=O)NCCN3CCCC3)ccc2Sc2ccccc21	i	1.16
O=C(Cc1cc(C(=O)O)c2ccccc2n1)Nc1ccccc1	i	0.95
Cc1c(N=C2SC(CC(=O)Nc3ccccc3)C(=O)N2CCN2CCOCC2)c(=O)n(-c2ccccc2)n1C (stereo not drawn)	i	-0.16
COc1ccc(C)cc1NC(=O)CSc1nc2ccccc2nc1N1CC(C)OC(C)C1 (stereo not drawn)	i	0.01

# (next part)
molecule	KCNQ2 block	KCNQ2 block baseline
COc1ccc(CNC(=O)C/C(C)=N/NC(=O)COc2ccc(Br)cc2)cc1	i	0.9
COc1ccc(C2NC(=O)c3ccccc3O2)c(OC)c1OC (stereo not drawn)	i	-0.74
Cc1ccc(C(=O)COC(=O)CCC(=O)NC2CCCCC2)cc1C	i	-1.15
Cc1nn(C)c(C)c1S(=O)(=O)N1CCc2ccccc21	i	-0.98
O=C(CC1C(=O)NCCN1Cc1ccc(F)cc1)NCCOc1cccnc1 (stereo not drawn)	i	-0.44
O=C(c1cc(-n2cnnc2)ccc1Cl)N1CCN(c2nc(-c3ccccc3)cs2)CC1	i	-0.45
COc1cccc(NC(=O)C(=O)NCCCn2ccnc2)c1	i	1.94
O=C(O)c1ccc2c(=O)n(Cc3ccccc3)c(SCc3ccc([N+](=O)[O-])cc3)nc2c1	i	-1.23
COc1ccc(Nc2ncc(C(=O)N3CCN(Cc4ccccc4)CC3)c3ccccc23)cc1	i	-0.79
O=C1CN(C(=O)CCCc2c[nH]c3ccccc23)c2ccccc2N1	i	-0.57

# Arranged by value in KCNQ2 block baseline (falling): 5 from the list above
molecule	KCNQ2 block	KCNQ2 block baseline
COc1ccc(CNC(=O)C/C(C)=N/NC(=O)COc2ccc(Br)cc2)cc1	i	0.9
O=C(CC1C(=O)NCCN1Cc1ccc(F)cc1)NCCOc1cccnc1 (stereo not drawn)	i	-0.44
COc1ccc(Nc2ncc(C(=O)N3CCN(Cc4ccccc4)CC3)c3ccccc23)cc1	i	-0.79
Cc1ccc(C(=O)COC(=O)CCC(=O)NC2CCCCC2)cc1C	i	-1.15
O=C(O)c1ccc2c(=O)n(Cc3ccccc3)c(SCc3ccc([N+](=O)[O-])cc3)nc2c1	i	-1.23

# Carrying on.
molecule	KCNQ2 block	KCNQ2 block baseline
CCOC(=O)c1[nH]c2cc3c(cc2c1NC(=O)CN1CC(C)CC(C)C1)OCO3 (stereo not drawn)	i	-0.19
Brc1ccc(OCc2nc3ccccc3[nH]2)cc1	i	0.02
Cc1ccc(S(=O)(=O)CCC(=O)Nc2nnc(-c3ccc(F)cc3)o2)cc1	i	-0.11
O=C(NCc1ccc(Cl)cc1)C1CCN(S(=O)(=O)c2cccc3nonc23)CC1	i	1.54
O=C(NCc1ccc(Cl)cc1)c1cnccn1	i	1.03
CCCn1nnnc1NC(=O)COc1ccc(Cl)c(C)c1	i	-0.66
COc1cccc(C(=O)NCCS(=O)(=O)N2CCCCCC2)c1	i	-1.99
COC(=O)C1(c2ccccc2)NC(c2cccs2)C2C(=O)N(C)C(=O)C21 (stereo not drawn)	i	-0.35
CCOC(=O)C1(Cc2cccc(F)c2)CCN(Cc2nc(CC)[nH]c2C)CC1	i	0.23
COc1ccc(NS(=O)(=O)c2ccc(NC(=O)c3ccc(N(C)S(C)(=O)=O)cc3)cc2)cc1	i	0.77
O=C(/C=C/c1cccc([N+](=O)[O-])c1)N(c1ccccn1)c1ccccn1	i	0.46
COCCn1c(=NC(=O)CCS(=O)(=O)c2ccccc2)sc2cc(C)ccc21	i	1.71
O=C(NNC(=S)NC(=O)c1ccccc1)c1cccc([N+](=O)[O-])c1	i	-0.53
c1cncc(-c2csc(NCc3ccco3)n2)c1	i	-1.05
CCOC(=O)c1c(-c2cccc([N+](=O)[O-])c2)csc1NC(=O)CCCOc1ccccc1OC	i	0.15
O=C(O)CCN1C(=O)/C(=C\c2ccc(-c3nc4ccccc4s3)o2)SC1=S	i	2.13
Cc1ccc(Cn2ccc(NC(=O)c3cc(-c4ccc(Cl)cc4)on3)n2)cc1	i	-0.28
O=C1/C(=C\c2ccco2)SC(=S)N1c1ccc(O)cc1	i	0.51
Cc1ccccc1OCc1nnc(SCC(=O)O)n1-c1cccc(Cl)c1	i	-0.02
CCOC(=O)CSC1=NC(=O)CS1	i	0.69
CCN1CCN(C(=S)Nc2sc(C)c(-c3ccccc3)c2C(=O)OC)CC1	i	-0.58
Cc1cc(C)n(-c2nc3ccccc3[nH]c2=O)n1	i	1.59
CCOC(=O)C1CCCCN1Cc1cccc(Oc2ccccc2)c1 (stereo not drawn)	i	-2.52
CC(C)N1CCN(Cc2cn[nH]c2C2CCCCC2)CC1CCO (stereo not drawn)	i	-0.38
CCOC(=O)C1(S(=O)(=O)c2ccccc2)CCN(Cc2ccc(Cl)cc2)CC1	i	-1.15
Cn1c(=O)c2c([nH]c(=S)n2Cc2ccc(Cl)cc2)n(C)c1=O	i	-0.06
Cc1ccc(C(=O)NNC(=O)C2CCN(c3nc(C)cc(C)n3)CC2)cc1	i	1.77
Cc1ccccc1CN(c1ccc(C(=O)N2CCN(C)CC2)cc1)S(C)(=O)=O	i	0.85
Cc1nc2ccccc2c(=O)n1/N=C/c1c(O)ccc2ccccc12	i	-0.62
COc1ccc(-n2ncc3c(SCC(=O)N4CCN(c5ccccc5OC)CC4)ncnc32)cc1	i	-0.66

# Two entries drawn at random from those above, as already listed:
molecule	KCNQ2 block	KCNQ2 block baseline
CCN1CCN(C(=S)Nc2sc(C)c(-c3ccccc3)c2C(=O)OC)CC1	i	-0.58
Cn1c(=O)c2c([nH]c(=S)n2Cc2ccc(Cl)cc2)n(C)c1=O	i	-0.06

# New compounds follow
molecule	KCNQ2 block	KCNQ2 block baseline
COC(=O)c1sccc1Oc1ccc(Cl)cc1N1C(=O)CCC1=O	i	0.88
Cc1sc2nc(SCC(=O)N(C)c3ccccc3)n(C)c(=O)c2c1C	i	0.02
CCOc1ccc(NC(=O)Cn2nnc(-c3ccccc3NC(=O)CC)n2)cc1	i	0.45
CC1(C)Oc2ccc3ccc(=O)oc3c2/C(=C/Nc2cccc(O)c2)C1=O	i	0.01
O=C(O)CCC(=O)NNC(=O)c1cccc(Br)c1	i	1.46
Cc1nn(-c2ccccc2)c(Cl)c1CN(C(=O)CCl)c1cccc2ccccc12	i	0.02
Clc1ccccc1-c1nnc(-c2cccs2)o1	i	-0.02
